Autofluor counter – counter-screen for toxin protease inhibitors: compound fluorescence | fluorescence intensity (concentration not given with the values) | 360,000 tested, 3.1% active | AID 624483 | compound autofluorescence counterscreen, microsphere flow cytometry; active compounds read high;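 active = at least 3 SD above the mean of all compounds, about 16000 in these data; inconclusive = too few beads counted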;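 note: 100 nL of 1 mM stock went into each well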
RN4220 kill – S. aureus RN4220 growth inhibition. OD600, 16 h. AID 1259311. 330,000 tested, 0.33% active. inhibition, % (no concentration beside the values);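 active = z-score of -3 or lower and OD600 up to 0.18 on both plates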;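 note: plate controls were untreated cells for no effect and reference antibiotic for full effect; stock transfer was 100 nL into about 80 µL; one replicate is shown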
Mtb hypoxia rep – inhibitors of hypoxia-regulated fluorescent reporter in Mycobacterium tuberculosis | AID 1159583 | 300,000 tested, 0.1% active | fluorescence inhibition, % (test concentration not listed) | M. tuberculosis hypoxia-regulated fluorescent reporter, fluorescence;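 active = 35 to 45% if threefold the growth effect, above 45% if 1.5-fold the growth effect; inactive = the rest, general growth blockers included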;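 note: wells of about 50 µL received 100 nL stock; 0% = vehicle wells and 100% = reference inhibitor wells; whole bacteria with a GFP reporter of the hypoxia response; strong numbers were not always called active; many hits fall short of the cut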
PrP UTR inh – suppresses PrP 5' UTR mRNA reporter expression. cell-based PrP 5' UTR mRNA reporter, plate reader. inhibition, % (no concentration beside the values). 340,000 tested, 0.35% active. AID 488862;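 active = every replicate at 50% or more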;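 note: 0 = median of the neutral control wells; tested in H4 reporter cells; numbers are from one replicate; inactives centre near -14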
BJeLR lethal – BJeLR cell viability loss; BJeLR (HRASV12) viability, CellTiter-Glo ATP luminescence, 48 h; reference of the scale not given here; inhibition, % (test concentration not listed); 300,000 tested, 0.17% active; AID 1554;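 active = replicate mean above 50%; inconclusive = above 50% but judged a plate artefact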;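 note: 50 nL library stock added to about 25 µL; numbers are from one replicate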
Sa ugtP lethal – growth inhibition of S. aureus ugtP deletion strain | growth inhibition, % (no concentration beside the values) | S. aureus RN4220 ugtP deletion, OD600 growth, 16 h; some inactives read as strong as hits | AID 1259309 | 330,000 tested, 0.54% active;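 active = z-score under -3 and OD600 up to 0.15 on both plates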;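 note: plate controls were untreated wells for no effect and antibiotic for full effect; wells of about 80 µL received 100 nL stock; the first replicate is given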
Mtb hypoxia rep growth – second read-out of Mtb hypoxia rep, no call of its own (marks repeat the call); growth inhibition, %; measured here: M. tuberculosis growth (absorbance);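 0% = vehicle and 100% = reference antibiotic; read after six days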
* hit, by the source's call; ? = inconclusive; · = no result given.

SMILES	Autofluor counter	RN4220 kill	Mtb hypoxia rep	Mtb hypoxia rep growth	PrP UTR inh	BJeLR lethal	Sa ugtP lethal
COc1ccc(-c2cc(C(=O)N3CCC4(CC3)OCCO4)c3ccccc3n2)cc1	4636	4.4	1	-2	-47	9	5
N#Cc1cc([N+](=O)[O-])ccc1Oc1cccc(/C=N/NC(=O)c2cccc(Cl)c2)c1	4257	·	·	·	-10	1	·
O=C(Nc1nccs1)c1ncc(Cl)c(Cl)c1Cl	3629	3.4	-1	2	-38	15	4
Oc1ccc(/C=N/Nc2nn3cnnc3c3ccccc23)cc1	4700	·	·	·	-11	-5	·
CSc1ccc(CN2CCN(C(=O)COc3ccc(C)cc3)CC2)cc1	4373	-1.6	-6	-7	-10	3	11
CCCOc1cc(C)c(S(=O)(=O)N2CCN(C)CC2)cc1C	4748	5.8	·	·	-19	4	-3
CCOC(=O)C(=Cc1c[nH]c2ccc(S(=O)(=O)N(C)C)cc12)C(=O)OCC	3685	5.0	5	-2	-9	-6	12
CCCCN(C(=O)c1c(CC)noc1C)c1c(N)n(CCCC)c(=O)[nH]c1=O	?	1.7	4	3	-21	-11	13
CCOc1cc(C2NN=C(c3ccccc3)S2)ccc1OCc1ccccc1Cl (configuration not stated)	3680	8.3	8	8	-96	2	0
COc1ccc(-n2nc(C(=O)NCC(=O)NC(C)C)c3ccccc3c2=O)cc1Cl	4064	3.9	8	2	-16	-3	4
Cc1nn(Cc2ccc(Cl)cc2)c(C)c1NC(=O)c1cc(C(C)C)on1	3222	4.9	-3	-4	-15	6	7
Cc1sc2ncnc(SCC(=O)N3CCC(c4noc5ccc(F)cc45)CC3)c2c1C	10095	6.6	11	2	-46	-1	-5
CC(C)CCNc1ncnc2c1nnn2Cc1ccccc1Cl	10561	-0.6	3	3	14	9	32
COc1ccc(C2Nc3ccccc3C(=O)N2c2ccc(F)cc2)cc1Cn1nnc2ccccc21 (configuration not stated)	10397	-2.8	6	0	-13	19	3
COc1ccc(S(=O)(=O)N2CCCOC2CNC(=O)C(=O)NCCc2ccco2)cc1C (configuration not stated)	6372	3.8	-5	-1	-17	11	9
CCOC(=O)c1cc(OC(=O)c2cccc([N+](=O)[O-])c2)n(-c2ccccc2)n1	17208*	0.2	2	1	-4	4	6
COc1ccc(N/N=C(\C#N)C(=N)N2CCOCC2)cc1	3805	·	·	·	-31	-8	·
NC1=NC[C@H](Cc2ccccc2)N1CCCCC1CCCCC1	4513	5.8	2	7	-14	15	11
O=C(COc1ccccc1F)NNC(=O)Cn1c(=O)cnc2ccccc21	?	2.6	1	11	8	·	0
Nc1c(Cl)ncnc1NCc1ccccc1	3262	1.1	-2	1	-7	10	5

5 entries already listed, arranged by molar mass, rising:
SMILES	Autofluor counter	RN4220 kill	Mtb hypoxia rep	Mtb hypoxia rep growth	PrP UTR inh	BJeLR lethal	Sa ugtP lethal
COc1ccc(N/N=C(\C#N)C(=N)N2CCOCC2)cc1	3805	·	·	·	-31	-8	·
CSc1ccc(CN2CCN(C(=O)COc3ccc(C)cc3)CC2)cc1	4373	-1.6	-6	-7	-10	3	11
Cc1nn(Cc2ccc(Cl)cc2)c(C)c1NC(=O)c1cc(C(C)C)on1	3222	4.9	-3	-4	-15	6	7
CCCCN(C(=O)c1c(CC)noc1C)c1c(N)n(CCCC)c(=O)[nH]c1=O	?	1.7	4	3	-21	-11	13
N#Cc1cc([N+](=O)[O-])ccc1Oc1cccc(/C=N/NC(=O)c2cccc(Cl)c2)c1	4257	·	·	·	-10	1	·

(more compounds)
SMILES	Autofluor counter	RN4220 kill	Mtb hypoxia rep	Mtb hypoxia rep growth	PrP UTR inh	BJeLR lethal	Sa ugtP lethal
N#CC(=Cc1cn(CC(=O)O)c2ccccc12)C(=O)NCc1ccccc1	·	3.7	2	6	·	·	0
Cc1cc(C(=O)N2C(C)CCCC2C)no1 (configuration not stated)	5807	4.5	14	2	-12	-8	10
CCCN(CCC)CCCNC(=O)c1nn(-c2cccc(OC)c2)c(=O)c2ccccc12	2410	-1.2	-4	1	-32	3	15
COCCN1C(=O)C(=O)/C(=C(/O)c2cccc(S(=O)(=O)N(C)C)c2)C12C(=O)N(C)c1ccccc12 (configuration not stated)	3667	-11	18	8	-8	2	0
CC(C)CCNC(=O)c1ccccc1SCC(=O)NC1CCCCCCC1	8693	-8.6	5	9	-12	·	7
CNc1nc(NN=Cc2cc3c(cc2[N+](=O)[O-])OCO3)nc(Nc2ccccc2)n1	·	12	12	16	·	·	-19
C=CCN(C(=O)CCC(=O)Nc1cc(C)on1)C(C(=O)NC1CCCC1)c1ccc(Cl)cc1 (configuration not stated)	4628	1.3	7	1	-25	2	-5
COc1ccc(-c2cc3c(=O)n(CC(=O)NCCCN4CCN(Cc5ccccc5)CC4)ncn3n2)cc1	4738	2.2	10	4	10	-8	8
Cc1ccc(C(=O)N/C(=C\c2ccccc2)C(=O)NCCCn2ccnc2)cc1	4610	-0.4	-15	1	-14	-1	-1
CC(NCc1ccc2c(c1)OCO2)C(=O)NC1CCCCC1 (configuration not stated)	4123	7.6	6	12	-15	-6	-1
N#Cc1cccc(CN2CCC(=O)N(CCO)CC2)c1	4242	0.2	-3	-7	-13	-2	-2
C/C(=N\NC(=O)c1cccnc1)c1c(O)cc(C)oc1=O	8560	·	·	·	-34	10	·
CC1(C)CC(N2CCC(=O)N(C3CC(C)(C)NC(C)(C)C3)C2)CC(C)(C)N1	3080	3.7	3	-3	0	-21	-2
Cc1ccc2nc(Cl)c(/C=N/NC(=O)[C@H]3C[C@@H]3c3ccccc3)cc2c1	2613	·	·	·	-10	-1	·
COc1cc([N+](=O)[O-])cc(/C=N\NC(=O)C2COc3ccccc3O2)c1O (configuration not stated)	4582	·	·	·	-12	1	·
Fc1ccc(NC(=S)N2CCCN(c3ccc(C(F)(F)F)cn3)CC2)c(F)c1	4037	-0.2	3	3	-21	6	-7
Cc1cc(C)n(-c2ccc(C(=O)OCC(=O)Nc3ccc(Cl)cc3[N+](=O)[O-])cc2)n1	1968	8.9	-7	-6	-11	-3	14
CN(CC1CCN(CCc2cccc(C(F)(F)F)c2)CC1)C(=O)c1ccc(F)cc1	4969	1.9	4	4	-21	-4	1
Cc1cccc(C)c1NC(=O)c1cnccn1	·	2.6	11	1	-16	5	8
CCOc1ccc(OCC(=O)OCC(=O)N(CC(C)C)c2c(N)n(Cc3ccccc3)c(=O)[nH]c2=O)cc1	4784	-2.0	6	-3	-29	7	11
COc1ccc(C(C(=O)NC(C)(C)C)N(Cc2ccccc2)C(=O)CCC(=O)Nc2cc(C)on2)cc1 (configuration not stated)	2592	-9.3	-3	9	-19	2	-12
O=C(NN=Cc1cccc(O)c1)c1cc(C2CC2)nc2ccccc12	·	0.0	-20	-9	·	·	2
COc1cccc(CNS(=O)(=O)c2c(C)nc3sccn3c2=O)c1	5625	-4.9	-10	-5	-11	-16	-7
CC(=O)n1cc([C@H]2C=C(C(=O)N3CCN(Cc4ccccc4)CC3)O[C@@H](OCCCCO)C2)c2ccccc21	3953	·	·	·	-12	1	·
CSc1ccccc1OCc1cc(C(=O)NC(C)CCn2cccn2)no1 (configuration not stated)	4513	2.5	0	-4	-4	-11	3
Cc1cc(COc2ccccc2)oc1C(=O)O	3640	1.0	3	-1	-30	-12	11
COc1cccc(NC(=O)NCCCCc2ccccc2)c1	?	-2.4	-2	1	-27	7	-3
CC(=O)NCc1ccc(S(=O)(=O)NN=Cc2ccccc2)cc1	·	3.3	-19	-16	·	·	3
CC(=O)C1C(c2ccccc2)c2c(noc2C)CC1(C)O (configuration not stated)	·	2.4	-2	-5	-4	6	7
c1ccc2c3c(c(CN4CCCCC4)cc2c1)COC3	4628	-0.6	0	15	11	7	6
CCOC(=O)C1(Cc2cccc(OC)c2)CCCN(S(=O)(=O)c2cccnc2)C1 (configuration not stated)	3467	8.5	6	5	-13	-1	14
CC1CC/C(=N/Nc2ccccc2)C(=O)N1 (configuration not stated)	2016	·	·	·	-38	1	·
Cc1noc(C)c1COc1cccc(C(=O)OCC(=O)NCCN2C(=O)CSC2=O)c1	4248	0.7	0	3	-26	-1	3
Cc1ccc2c(c1)N(CC(=O)NCCc1ccccc1)C(=O)c1cccnc1O2	5871	-3.2	·	·	-8	-2	1
CC(C)C[C@H](NC(=O)c1nc[nH]c1C(=O)NCc1ccc(CNC(=O)OC(C)(C)C)cc1)C(=O)OCc1ccccc1	3615	·	·	·	4	8	·
Cc1ccc(C2=NN=C(NC(=O)CSc3nc(C)cc(C)n3)SC2)cc1	·	3.6	2	0	·	1	-3
COc1ccc(CCNC(=O)COC(=O)c2sc(C)nc2C)cc1	?	1.9	3	4	3	·	3
CC(=NNC(=O)CSc1nc2ccccc2o1)c1ccc(O)cc1	·	0.7	3	-2	·	·	21
COc1cc(/C=C(\C#N)C(=O)c2c[nH]c3ccccc23)cc(OC)c1O	6197	2.2	-12	7	-41	5	-13
CC(=O)c1ccc(OCC(O)CN2C(C)CCCC2C)cc1 (configuration not stated)	6246	-7.9	6	8	-18	-4	2
CCOC(=O)C1=C(COC(=O)/C=C/c2ccc(OC)cc2OC)NC(=O)NC1C (configuration not stated)	5348	·	·	·	-1	-8	·
COc1c(S(=O)(=O)n2nc(C)cc2C)ccc(Cl)c1Cl	5607	8.8	7	5	-12	-1	-24
O=C1CCN(Cc2nnnn2CC2CCCO2)c2ccccc2N1 (configuration not stated)	6817	-0.3	10	-2	-19	1	2
O=C(O)c1ccc(CNC(=O)c2ccccc2NC(=O)c2ccc([N+](=O)[O-])cc2)cc1	3310	1.2	0	4	-28	8	0
CCOc1ccc(C2/C(=C(\O)c3ccc4c(c3)OCCO4)C(=O)C(=O)N2CCN2CCOCC2)cc1OC (configuration not stated)	5838	1.3	1	16	6	·	-3
COc1ccc(NC(=O)/C(=C\c2cccnc2)NC(=O)c2cccs2)cc1	8151	4.1	0	6	-24	-5	6
FC(F)(F)c1cc(-c2ccco2)nc(N2CCOCC2)n1	4338	3.3	·	·	0	-2	8
Cc1cccc(NC(=O)C2CCCN(S(=O)(=O)c3cccc4cccnc34)C2)c1 (configuration not stated)	4465	0.5	·	·	-3	-4	13
CCOC(=O)c1c(NC(=O)c2ccc(C)cc2)sc2c1CC(C)(C)OC2	2757	-3.2	·	·	-4	0	4
CCc1cccc(CC)c1N(COC)C(=O)Cn1c(CO)nc2ccccc21	?	6.2	10	16	-23	-2	-12
CCOC(=O)C1(CCOC)CCN(Cc2cnc(-c3cccc(C)c3)nc2)CC1	5242	5.5	6	10	-25	-2	-3
CC(=O)c1c(C)[nH]c(C(=O)N2CCN(C(=O)c3ccco3)CC2)c1C	3051	1.4	·	·	-27	-4	0
COc1ccc(/C=N/NC(=O)c2nn(-c3ccc(Cl)cc3)c(=O)c3c(N)scc23)cc1	?	·	·	·	-8	0	·
COc1ccc(NC(=O)c2ccc(Cl)c(S(=O)(=O)NCC3CCCO3)c2)c(OC)c1 (configuration not stated)	5822	2.8	1	21	12	8	0
CCN(CC)C(=O)N1CCN(S(=O)(=O)c2ccc(C)c(C)c2)CC1	4806	3.4	·	·	-11	-3	1
C=CCN(CC=C)C(=S)NC(=O)Cc1cccc2ccccc12	1821	·	·	·	8	5	·
CCOc1ccc(S(=O)(=O)NCCC(=O)NCC2CCCO2)cc1 (configuration not stated)	3777	7.4	6	0	-21	·	0
COC(=O)c1ccc(C2c3[nH]c4ccccc4c3C[C@H]3C(=O)N(C)CC(=O)N23)cc1 (some centres not stated)	4097	1.5	10	3	-19	2	-5
Cc1ccc(C)c(N(C(=O)Cc2cccs2)C(C(=O)NC2CCCC2)c2ccc(C)o2)c1 (configuration not stated)	5901	6.0	5	3	-16	4	-2
CNC(=O)Cc1csc2ccc(C)cc12	3911	3.0	12	-2	-24	-4	-1

New compounds follow.
SMILES	Autofluor counter	RN4220 kill	Mtb hypoxia rep	Mtb hypoxia rep growth	PrP UTR inh	BJeLR lethal	Sa ugtP lethal
CCCN(CCC)S(=O)(=O)c1ccc(Cl)c(OC)c1	4292	·	·	·	-19	0	·
Cc1ccnn1CC(=O)N/N=C/c1c[nH]c2ccccc12	4169	·	·	·	-1	-4	·
CCCCn1c(CN2C(=O)c3ccccc3C2=O)nc2ccccc2c1=O	3924	4.6	·	·	-17	4	-5
O=C(NC(=S)Nc1nc(-c2ccccc2)cs1)c1cccs1	8570	-9.2	12	-7	-40	-1	-5
COCCNC(=S)N1C2CCC1CC(NC(=O)NC13CC4CC(CC(C4)C1)C3)C2 (configuration not stated)	8333	5.0	12	6	-10	1	10

Screening data as filed in PubChem.
